Assay outcomes from PubChem.
KCNQ2 enhance: enhances the rat KCNQ2 potassium channel. CHO-K1 KCNQ2, FluxOR thallium flux fluorescence; hits give high values. B-score at 10 µM. hit rate 0.54% among 310,000;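 active = fluorescence ratio B-score at least 3 SD of library B-scores, with initial fluorescence B-score within 3 SD, cut at about 5.3 in these data; same plate scores as AID 2156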;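 also: B-score of peak minus minimum over baseline fluorescence ratio after K+ and Tl+ stimulus; positive B-score means potentiation of KCNQ2 with more thallium influx and brighter signal; only the inactives scoring about 0 or higher are listed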
Target sequence (O88943 whole entry, looked up): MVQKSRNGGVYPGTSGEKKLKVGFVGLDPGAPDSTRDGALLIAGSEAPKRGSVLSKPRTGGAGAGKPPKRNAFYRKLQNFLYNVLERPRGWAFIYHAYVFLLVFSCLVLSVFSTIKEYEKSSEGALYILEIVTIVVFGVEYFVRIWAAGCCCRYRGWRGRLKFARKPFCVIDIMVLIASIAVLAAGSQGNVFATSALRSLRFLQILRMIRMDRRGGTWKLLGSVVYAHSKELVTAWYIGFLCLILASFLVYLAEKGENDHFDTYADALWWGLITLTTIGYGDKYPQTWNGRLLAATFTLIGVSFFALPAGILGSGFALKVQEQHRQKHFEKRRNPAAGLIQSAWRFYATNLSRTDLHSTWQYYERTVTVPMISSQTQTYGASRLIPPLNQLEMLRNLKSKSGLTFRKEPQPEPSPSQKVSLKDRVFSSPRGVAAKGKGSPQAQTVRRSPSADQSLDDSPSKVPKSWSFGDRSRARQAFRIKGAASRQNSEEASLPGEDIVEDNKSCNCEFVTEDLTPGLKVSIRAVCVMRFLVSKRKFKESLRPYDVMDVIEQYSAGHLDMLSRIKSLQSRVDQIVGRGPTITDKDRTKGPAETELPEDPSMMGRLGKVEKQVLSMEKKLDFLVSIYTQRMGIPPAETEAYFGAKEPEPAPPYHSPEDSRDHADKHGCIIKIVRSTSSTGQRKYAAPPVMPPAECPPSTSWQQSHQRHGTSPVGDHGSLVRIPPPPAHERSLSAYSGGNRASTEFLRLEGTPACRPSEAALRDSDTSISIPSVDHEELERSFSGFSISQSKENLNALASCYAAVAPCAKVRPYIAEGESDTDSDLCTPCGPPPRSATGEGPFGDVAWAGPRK
KCNQ2 enhance baseline: further read-out of KCNQ2 enhance, marked with its call; B-score; compound at 10 µM; measured here: initial fluorescence intensity artifact check;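 brightness before thallium and not channel activity; 0 = typical well and far values either way flag optical interference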
* hit, by the source's call.

SMILES | KCNQ2 enhance | KCNQ2 enhance baseline
O=C(c1ccc2c(c1)C(=O)N(Cc1ccco1)C2=O)N1CCOCC1 | 0.2 | -1.07
CC(C)C[C@@H](CSc1ccccc1)N1CCN(C)CCC1=O | 0.21 | 0.98
COc1ccc(NC(=O)C2CC(=O)N/C(=N/NC(=O)c3ccc(Cl)cc3)S2)cc1 (configuration not stated) | 0.09 | 1.24
CCOc1ccc(-c2c(C(=O)N/N=C/c3ccoc3)nnn2-c2nonc2N)cc1 | 0.58 | 1.57
Cc1ccc(N(C(=O)c2ccco2)C2C=CS(=O)(=O)C2)cc1 (configuration not stated) | 0.03 | -0.55
COCc1nc(-c2ccc(-c3ccc(C)cc3)nc2OC)no1 | 1.75 | -0.75
CS(=O)(=O)N1CCc2cc(C(=O)N3CCN(c4ccccc4)CC3)ccc21 | 0.14 | -0.66
Cc1cc(-c2csc(N)n2)c(C)n1-c1ccccc1 | 1.01 | -0.39
COc1ccc(CCNC(=O)CCN2C(=O)c3cccc4cccc(c34)C2=O)cc1OC | 0.03 | 0.78
COc1ccc(NC(=O)CSc2nnc(Cc3ccccc3)c(=O)n2N)c(OC)c1 | 0.12 | 0.11
CCCCCCc1nc(C(N)=O)c2[nH]c(=O)n(-c3ccccc3F)c2n1 | 0.29 | 0.4
Cc1ccc(CNC(=O)C2CC2c2ccccc2)cc1 (configuration not stated) | 2.05 | 3.38

Reformatted: 2 of the compounds above.
Compound	KCNQ2 enhance	KCNQ2 enhance baseline
CS(=O)(=O)N1CCc2cc(C(=O)N3CCN(c4ccccc4)CC3)ccc21	0.14	-0.66
COc1ccc(NC(=O)CSc2nnc(Cc3ccccc3)c(=O)n2N)c(OC)c1	0.12	0.11

The list goes on.
SMILES | KCNQ2 enhance | KCNQ2 enhance baseline
COC(=O)c1ccc2c(c1)NC(=O)C(N(CC(C)C)CC(C)C)S2 (configuration not stated) | 0.55 | 0.33
CC(C)c1nc(SCC(=O)NC2CCCC2)c2ccccc2n1 | 2.31 | 0.47
CCc1ccccc1NC(=O)CSc1nnc([C@@H](NC(=O)OC(C)(C)C)C(C)C)o1 | 0.76 | -0.73
C=C(C)Cn1c(SCC(=O)N/N=C/c2ccccc2)nc2ccccc2c1=O | 0.08 | 1.07
CC(C)OC(=S)N/C(=N\S(=O)(=O)c1ccccc1)c1ccccc1 | 0.58 | -1.23
CCC(CO)NCc1ccccc1OC(C)C (configuration not stated) | 0.21 | -1.56
CC(C)(C)CC(C)(C)c1ccc(OCC(=O)N/N=C/c2ccc(S(=O)(=O)O)o2)cc1 | 2.1 | 0.6
O=C(/C=C/c1ccco1)Nc1ccc(Cl)c(S(=O)(=O)N2CCOCC2)c1 | 1.37 | -1.84
CCC(=O)N1CCc2cc(Br)cc(S(=O)(=O)N3CCCC(C(=O)O)C3)c21 (configuration not stated) | 2 | 0.46
CC(=O)Nc1sc(N/N=C/c2ccc(O)cc2)nc1-c1ccc(C)cc1 | 0.85 | 0.08
O=C1CCc2cc(S(=O)(=O)NCc3ccc(F)cc3)cc3c2N1CCC3 | 0.11 | 1.62
COc1ccc(S(=O)(=O)Nc2c(C(=O)O)[nH]c3ccccc23)c(OC)c1 | 0.48 | 1.8
O=c1[nH][nH]c(-c2ccccc2)c1C=Nc1ccc(F)cc1F | 0.77 | -3.49
COCCCNC(=O)c1c(-c2ccccc2)noc1C | 0.05 | 0.47
CC(OC(=O)c1nc(Cl)ccc1Cl)C(=O)Nc1ccc2c(c1)OCCO2 (configuration not stated) | 1.39 | -0.98
Cc1ccc(C(=O)Nc2ccc(C(=O)O)cc2NC(=O)c2ccc(C)cc2)cc1 | 1.06 | -1.22
CN(C)C(CNc1ccc(S(C)(=O)=O)cc1[N+](=O)[O-])c1ccccc1 (configuration not stated) | 0.48 | -1.19
CN(C)CC(CCC(CN(C)C)C(=O)c1ccccc1)C(=O)c1ccccc1 (configuration not stated) | 0.59 | 1.56
O=C(C1CCN(S(=O)(=O)c2ccc(F)cc2)CC1)N1CC=C(c2ccccc2)CC1 | 0.03 | 1.5
Cc1cccc(C)c1NC(=O)CC(NCc1ccco1)C(=O)O (configuration not stated) | 0.51 | 0.28
Cc1ccc(S(=O)(=O)N2CCCCC2)cc1NC(=O)COC(=O)C1CC2C=CC1C2 (configuration not stated) | 0.22 | -0.86
CCO[C@H]1OC(C(=O)N2CCCCCCC2)=C[C@@H](C)[C@@H]1CCCO | 0.59 | 0.98
CCN(CC)c1ccc(NC(=O)COC(=O)/C=C/c2nc3ccccc3s2)cc1 | 1.02 | -0.14
O=C(Nc1ccccc1)Nc1csc2ccccc12 | 0.93 | -0.48
CCCSc1nnc2nc(C)cc(C)n12 | 0.01 | 0.74
Oc1ccc(N=Nc2ccc3c(c2)OCO3)c2ccccc12 | 0.95 | 0.78
CN(C)C=C1C(=O)c2ccccc2C1=O | 1 | -0.52
Cc1cc(C)nc(NS(=O)(=O)c2ccc(N/C=C/C(=O)c3ccc(Cl)cc3)cc2)n1 | 0.33 | -0.44
CCN1C(=O)/C(=C2/C(=O)N3c4c(cc(OC(C)=O)cc42)C(C)=CC3(C)C)SC1=S | 0.32 | -0.23
COc1ccccc1CNC(=O)C(C)NS(=O)(=O)c1ccccc1 (configuration not stated) | 0.75 | -1.28
COc1ccc(C(=O)NNC(=O)CN2CCN(c3nc(-c4ccccc4)cs3)CC2)cc1 | 0.76 | -1.28
CCOC(=O)C1=C(C)NC(=O)NC1c1ccccc1 (configuration not stated) | 0.63 | 1.85
CCN(CC)C(=O)c1ccccc1NS(C)(=O)=O | 0.66 | 0.27
Cc1cc(Br)cc(Cl)c1OC(=O)c1cnccn1 | 0.65 | 1.42
COc1ccc(/C=N/N=C2/C(=O)Nc3ccccc32)cc1O | 1.41 | -1.32
O=C(CN1CCCC1)Nc1ccccc1Sc1ccc(Cl)cc1 | 0.01 | -0.87
O=C1CCc2cc(S(=O)(=O)N3CCN(c4ccccc4F)CC3)ccc2N1 | 0.97 | 2.62
COc1ccc(C2CC(=O)C(C=NCCN3CCOCC3)=C(O)C2)cc1 (configuration not stated) | 1.34 | -0.84
CCOC(=O)N/N=C1\CCc2ccccc21 | 0.35 | 1.89
Cc1nc(SC(C(N)=O)c2ccccc2)c(C#N)c(C)c1C (configuration not stated) | 0.3 | 0.01
O=C(c1ccc(NC(=O)C2(c3ccccc3)CCOCC2)cc1)N1CCOCC1 | 1.7 | -1.27
COc1cccc(OCC(=O)Nc2c3c(nn2-c2ccccc2)CS(=O)(=O)C3)c1 | 1.12 | -0.78
COC(=O)COc1ccc(/C=C2/NC(=O)N(CC(=O)OC)C2=O)cc1 | 2.6 | 0.19
O=C1CSC(=O)N1CCOCCN1C(=O)CSC1=O | 0.05 | 1.24
CC(=O)Nc1ccc(NC(=O)CCn2c(=O)oc3ccccc32)cc1 | 0.95 | 0.43
N=c1c(S(=O)(=O)c2ccccc2)cc2c(=O)n3ccccc3nc2n1CCCN1CCOCC1 | 0.08 | 0.06
CC(C)CN1CCC(=O)N([C@H](CN=[N+]=[N-])Cc2ccccc2)CC1 | 0.02 | 0.31
O=C(NCCc1c[nH]c2ccccc12)C1CCC(=O)N(CCc2cccc(F)c2)C1 (configuration not stated) | 0.58 | -0.26
CC1(O)CC(c2ccc(Cl)cc2)=NN1C(=O)c1ccc(Cl)cc1 (configuration not stated) | 0.68 | -0.45
N=C1SC(c2ccccc2)C(=O)N1c1ncc(Cc2ccccc2Cl)s1 (configuration not stated) | 0.6 | 0.54
c1ccc2c(c1)nc1n2CC2CON(C3CCCCC3)C12 (configuration not stated) | 0.4 | -0.53
COc1ccc(S(=O)(=O)N2CCOCC2)cc1NC(=O)c1cccc(-n2cccc2)c1 | 0.25 | -0.27
CCOC(=O)C1CCN(C(=O)CN2C(=O)c3cccnc3Oc3ccc(C)cc32)CC1 | 0.67 | -3.18
CCCC(=O)Nc1sc(C(=O)Nc2cccc(N)c2)c(C)c1C(=O)OC | 0.62 | -1.63
Cc1cccnc1NC(=O)Nc1ccc(F)cc1 | 0.09 | 1.43
COc1ccc(C(C)NC(=O)Nc2ccc(C(C)=O)cc2)cc1OC (configuration not stated) | 1.27 | -0.66
CCCN(CC(=O)Nc1ccc(F)c(F)c1F)C(=O)C1CC(=O)N(Cc2ccccc2)C1 (configuration not stated) | 1.16 | 0.09
COc1ccc(-c2nc3ccc(C)cn3c2NCc2ccc3c(c2)OCO3)cc1 | 0.61 | -0.77
CCOc1cc(CNCC2CCCN2CC)cc(Cl)c1OC (configuration not stated) | 1.14 | 0.46
Cc1cc(=O)n2[nH]c(-c3ccco3)nc2n1 | 0.6 | 0.53

Compounds above with a COOH group, in the order listed:
SMILES | KCNQ2 enhance | KCNQ2 enhance baseline
CCC(=O)N1CCc2cc(Br)cc(S(=O)(=O)N3CCCC(C(=O)O)C3)c21 (configuration not stated) | 2 | 0.46
COc1ccc(S(=O)(=O)Nc2c(C(=O)O)[nH]c3ccccc23)c(OC)c1 | 0.48 | 1.8
Cc1ccc(C(=O)Nc2ccc(C(=O)O)cc2NC(=O)c2ccc(C)cc2)cc1 | 1.06 | -1.22
Cc1cccc(C)c1NC(=O)CC(NCc1ccco1)C(=O)O (configuration not stated) | 0.51 | 0.28

The list continues.
SMILES | KCNQ2 enhance | KCNQ2 enhance baseline
COc1cc(/C=C/C(=O)O)cc(S(=O)(=O)Nc2ccccc2SC)c1OC | 0.2 | 1.51
COc1ccc(CN2CCC(N3CC(C)OC(C)C3)CC2)c(OC)c1 (configuration not stated) | 0.07 | -0.42
O=C(CSC(=S)N1CCOCC1)N1N=CCC1c1ccccc1 (configuration not stated) | 0.42 | 0.92
O=C(Nc1nc(-c2ccccc2)c(-c2ccccc2)s1)c1ccc(S(=O)(=O)N2CCCCC2)cc1 | 0.1 | -0.21
CCN(CC)S(=O)(=O)c1ccc(NC2c3ccccc3C(=O)N2c2ccc(C)cn2)cc1 (configuration not stated) | 1.07 | -0.75
CN(/N=C/c1c[nH]c2ccccc12)c1cnn(-c2ccc(F)c(Cl)c2)c(=O)c1Cl | 0.08 | 0.15
COC(=O)[C@H]1[C@H]2C[C@H]3c4[nH]c5ccccc5c4CCN3C[C@H]2CC[C@@H]1O | 0.1 | 0.12
CC(/C=C1\SC(=S)N(NC(=O)c2ccncc2)C1=O)=C\c1ccccc1 | 3.16 | -0.54
CCOC(=O)N1CCN(C(=O)Cn2nc(C)n3nc(-c4ccc(CC)cc4)cc3c2=O)CC1 | 0.21 | 0
O=C1CC(C(=O)Nc2ccccc2C(=O)O)C(c2ccccc2)O1 (configuration not stated) | 1.94 | -2.23
CCOc1ccc(NC(=S)NC(=O)c2c(Cl)c(C)nn2C)c([N+](=O)[O-])c1 | 0.29 | 0.66
Cc1ccc(OCC(=O)NCC(=O)n2nc(C)cc2C)cc1 | 1.82 | 0.29
CCc1nnc(SCC(=O)Nc2ccc(N3CCOCC3)cc2)o1 | 0.05 | 0.13
C/C(=N/NC(=O)c1ccc(C)s1)c1cccc(NC(=O)COc2ccc(Cl)cc2Cl)c1 | 1.53 | -3
Cc1ccc2oc(=O)n(Cc3ccccc3)c2c1 | 0.5 | 2.04
O=C(Cc1ccc(Cl)c(Cl)c1)Nc1cccc(S(=O)(=O)N2CCOCC2)c1 | 2.71 | 0.1
Cc1ccc(NC(=S)NC(=O)c2ccc(-c3ccccc3)cc2)c(C)c1 | 0.48 | -0.46
Cc1ccccc1NC(=O)CSCc1nc(N)nc(Nc2ccccc2C)n1 | 5.7* | 0.1*
O=C(CSc1nnc2ccccn12)NNC(=O)c1ccc(Br)cc1 | 1.01 | -0.48
O=C(CSc1ncnc2c(-c3ccc(Cl)cc3)nsc12)c1ccccc1 | 0.78 | 0.68
O=C(COC(=O)c1ccccc1Nc1ccc(SC(F)F)cc1)NCc1ccco1 | 0.13 | -1.35
CC(=O)c1ccccc1NC(=O)CN1C(=O)CS/C1=C\c1nc(-c2ccc(C)cc2)cs1 | 1.51 | 0.9
CCC(=O)N1c2ccc(C)cc2C2=NNC(=S)NC21O (configuration not stated) | 1.87 | -0.64
Cc1oc(-c2cccc(Cl)c2)nc1CN1CCC(C(=O)NCc2cccnc2)CC1 | 0.01 | -0.88
CC(=O)c1cccc(NC(=O)CCC2CCCC2)c1 | 2.16 | -0.23
FC(F)(F)c1cc(-c2ccc3c(c2)OCO3)nc(NCc2ccco2)n1 | 1.17 | 0.86
O=C(CCSc1nnc(-c2ccncc2)o1)Nc1cccc(Cl)c1 | 0.25 | 5.7
COc1ccc(/C=N/NC(=O)c2ccccc2O)cc1CSc1ccccn1 | 0.54 | -0.13
CC1(C)CC(=O)C(C=Nc2ccc(N)cc2)=C(O)C1 | 0.28 | 0.06
CCN(CC)Cc1c(O)ccc2c(=O)c(-c3ccc(Cl)cc3)coc12 | 0.62 | -0.08
CCc1nnc(NC(=O)CSc2nnc(-c3ccco3)o2)s1 | 0.06 | 0
COc1ccc(/C=N/OCC(=O)Nc2cc(C)on2)cc1OC | 1.59 | -0.16
CNS(=O)(=O)c1ccc(NC(=O)C2c3ccccc3Oc3ccccc32)cc1 | 0.07 | 0.3
CCNC(=O)C1Cc2cc(S(=O)(=O)N3CCCC3)ccc2N1C(C)=O (configuration not stated) | 0.74 | 0.48
O=C(OCc1ccc(F)cc1)c1cccnc1Cl | 0.87 | -0.23
CCOc1ccccc1NC(=O)CCCn1cc([N+](=O)[O-])cn1 | 0.02 | -0.64

Reformatted: entries from further up.
SMILES,KCNQ2 enhance,KCNQ2 enhance baseline
CCc1nnc(SCC(=O)Nc2ccc(N3CCOCC3)cc2)o1,0.05,0.13
C/C(=N/NC(=O)c1ccc(C)s1)c1cccc(NC(=O)COc2ccc(Cl)cc2Cl)c1,1.53,-3
Cc1ccc2oc(=O)n(Cc3ccccc3)c2c1,0.5,2.04
O=C(Cc1ccc(Cl)c(Cl)c1)Nc1cccc(S(=O)(=O)N2CCOCC2)c1,2.71,0.1
Cc1ccc(NC(=S)NC(=O)c2ccc(-c3ccccc3)cc2)c(C)c1,0.48,-0.46
Cc1ccccc1NC(=O)CSCc1nc(N)nc(Nc2ccccc2C)n1,5.7*,0.1*

Some of the compounds tested; the hit share may differ from the screen's.
